Compound activity: PubChem, several laboratories
T cruzi inh – inhibitors of intracellular T. cruzi growth, primary screen, luminescence, NIH3T3 host cells. inhibition, % (test concentration not listed). 300,000 tested, 1.4% active. T. cruzi beta-gal in NIH3T3, 90 h;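 active means mean inhibition across valid replicates above about 55%, limit read from the data; inconclusive means mean below that limit but half or more replicates reach it; inactive means mean below it, under half of replicates reach it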;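 further: signal also drops with host cell toxicity which is not excluded here; 0% = plate median of DMSO wells and 100% = zero luminescence signal; higher percent means less beta-gal luminescence so fewer parasites; stock transfer was 50 nL into about 50 µL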
Beta apoptosis – inhibitors of cytokine-induced beta cell apoptosis, primary screen, luminescence; INS-1E cytokine-induced death, ATP luminescence, 48 h; percent of positive-control rescue, neutral wells zero; protection from apoptosis, % (no concentration beside the values); 300,000 tested, 0.8% active; AID 435005, 2010;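 active means all replicates at 75% or more, or half of them and the mean; inconclusive means half reach 75% but not the mean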;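 further: 0% = cytokine-treated negative control wells and 100% = positive control rescue; higher means more ATP so stronger rescue from cytokine killing; wells of about 40 µL received 100 nL stock; the first replicate is given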
Vif A3G – inhibitors of Vif binding to APOBEC3G peptide, primary screen, biochemical, TR-FRET, GST-Vif 1-94, biotin-A3G peptide, dose response retest (AID 1117319). TR-FRET GST-Vif / biotin-A3G peptide binding; higher % means a stronger effect; test concentration not given here; strong numbers were not always called active. inhibition, %, or IC50 in µM where a hit was titrated. 260,000 tested, 0.57% active;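 active means above the screen mean plus three standard deviations and confirmed in dose response; inconclusive means results disagree or hit not tested in dose response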;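 further: Vif residues 1-94 fused to GST binding biotinylated APOBEC3G peptide 110-148; 0% = full assay without inhibitor and 100% = GST in place of GST-Vif; retest series ran down from 100 µM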
LANA-H2B inh – blockers of LANA interaction with H2A/H2B – biochemical, FP readout, HTS, primary screen. Protein LANA1 (Human herpesvirus 8 type P (isolate GK18)), Q9QR71. cell-free LANA-H2A/H2B peptide, fluorescence polarization. inhibition, % (concentration not given with the values). 320,000 tested, 0.6% active; in the data active means inhibition mostly above about 10%, no sharp cut-off; inactive means mostly below about 6.7%;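 further: stock transfer was 7.5 nL into about 10 µL; 0% = median of vehicle wells and 100% = median of positive control wells; one replicate is shown; the record names a cut of 25% in any replicate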
MLL AF4-AF9 inh – inhibitors of AF4 peptide binding to AF9, primary screen, biochemical, AlphaScreen, biotin-AF4 peptide, FLAG-AF9, single point. 350,000 tested, 0.47% active. Protein AF-9 (Homo sapiens), P42568. inhibition, % at 10 µM;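 active means every replicate reaching a set inhibition limit, whatever the replicate mean, cut at about 25% in these data; inconclusive means mean inhibition reaches that limit but some replicates miss it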;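 further: 0% = plate neutral control median and 100% = total signal loss; the record names both 10 and 1 µM as test concentration; the first replicate is given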
Target sequence (P42568 whole entry, looked up): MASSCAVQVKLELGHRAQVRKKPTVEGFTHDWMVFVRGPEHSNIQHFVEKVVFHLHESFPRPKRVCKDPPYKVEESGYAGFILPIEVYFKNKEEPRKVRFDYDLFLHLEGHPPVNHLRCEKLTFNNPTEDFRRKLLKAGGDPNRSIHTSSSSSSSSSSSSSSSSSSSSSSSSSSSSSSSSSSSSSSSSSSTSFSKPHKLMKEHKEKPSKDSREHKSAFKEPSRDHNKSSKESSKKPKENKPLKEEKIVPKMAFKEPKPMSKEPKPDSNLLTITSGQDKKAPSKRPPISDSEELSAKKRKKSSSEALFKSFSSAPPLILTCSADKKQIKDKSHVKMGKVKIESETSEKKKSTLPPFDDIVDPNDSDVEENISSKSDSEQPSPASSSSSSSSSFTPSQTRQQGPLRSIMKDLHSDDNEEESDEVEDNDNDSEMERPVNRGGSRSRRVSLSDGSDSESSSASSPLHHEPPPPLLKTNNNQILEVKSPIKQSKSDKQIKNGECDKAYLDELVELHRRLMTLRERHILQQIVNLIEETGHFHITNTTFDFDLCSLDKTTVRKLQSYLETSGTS
RanGTP-Impb inh – inhibitors of RanGTP-importin-beta interaction, primary screen, biochemical, FRET, CFP-Ran, YFP-importin-beta, homogeneous; AID 2216, 2009; inhibition, % (no concentration beside the values); Ran GTPase (GTP-bound) - importin-beta complex; 300,000 tested, 1.1% active; cell-free CFP-Ran/YFP-importin-beta FRET ratio;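 active means most replicates above 15%; inconclusive means exactly half above 15%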;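 further: 0% = DMSO wells and 100% = Ran loaded with GDP instead of GTP; wells of about 40 µL received 100 nL stock; the first replicate is given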
Calb FLC – C. albicans growth inhibition with fluconazole, primary screen, CaCi-2 strain, Alamar Blue fluorescence. AID 1979, 2009. growth inhibition, % (concentration not given with the values). C. albicans CaCi-2 (fluconazole-resistant clinical isolate) + fluconazole, 48 h. 300,000 tested, 0.57% active;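 active means most replicates above 75%; inconclusive means exactly half above 75%; inactive means most below 75%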;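 further: all wells also contain fluconazole at 8 µg/ml as a sub-toxic cotreatment; 0% = median of DMSO wells and 100% = median of geldanamycin control wells; wells of about 8 µL received 7.5 nL stock; the first replicate is given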
Bfl-1 A1 inh – caspase 3/7 activation in MEF A1-2A-BIM cells, primary screen, A1 inhibitor project, cell-based, luminescence, HTS. Caspase-Glo 3/7 luminescence, 3 h; percent of clofoctol response, vehicle zero. caspase activation, % (test concentration not listed). 330,000 tested, 0.066% active. AID 2462, 2010;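 active means over half of replicate activation scores above 10%, or exactly half above 10 with the replicate mean above 10; inconclusive means replicate mean below 10 yet half the replicates above 10; inactive means over half of replicates below 10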;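 further: wells of about 30 µL received 50 nL stock; many hits fall short of the cut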
* = called active by the depositor; ? = inconclusive; / = no result given; & = joins results of further samples. An unsorted share of the library; any-hit rate near 4.3%.

SMILES	T cruzi inh	Beta apoptosis	Vif A3G	LANA-H2B inh	MLL AF4-AF9 inh	RanGTP-Impb inh	Calb FLC	Bfl-1 A1 inh
CS(=O)(=O)c1ccc(Cl)c(NC(=O)c2cccc(N3C(=O)CCC3=O)c2)c1	-3.6	-8.4	5.4%	-5.1	-5.6	1.6	-9.4	-0.4
CC(=O)c1cccc(NC(=O)CCS(=O)(=O)c2cccc3nonc23)c1	/	-0.2	2.5%	3.6	/	/	/	-0.5
OCCOCCNc1ncnc2nc[nH]c12	13.4	-2.9	-2.7%	-1.9	7.1	3.7	-2.2	-0.4
COc1ccc(/C=C2\CCCCC2=O)cc1	-7.6	-4.1	/	0.1	-4.5	8.3	0.8	0.0
Cc1ccc(C(=O)NNC(=O)c2ccccc2)cc1S(=O)(=O)N1CCCCC1	/	-9.3	-8.3%	2.0	0.4	/	/	-0.1
Cc1ccccc1-c1ccc(C(=O)NCc2ccccc2)o1	-8.5	-8.5	0.8%	-0.2	-2.7	1.0	7.5	0.3
O=C(O)c1cc(N=Cc2c(O)c3ccccc3oc2=O)ccc1O	-1.6	-17.6	-11.8%	0.9	2.1	-3.9	18.7	-12.9
CCc1[nH]nc(C(=O)N2CCCC(CO)(Cc3ccc(F)cc3F)C2)c1C (stereo not given)	17.1	-1.8	-1.1%	-1.9	-0.5	0.8	3.5	-0.6
Cc1cccc(NS(=O)(=O)c2ccc3c(c2)OCCO3)c1	-11.7	0.0	19.6%	-5.5	/	0.7	-35.0	0.2
Cc1cccc(-c2nc(CS(=O)CC(=O)NCC3CCCO3)c(C)o2)c1 (stereo not given)	0.3	-11.9	12.2%	-1.0	-2.2	1.2	-7.4	0.7
O=C(NCc1ccco1)c1ccc(N2CCCCC2)c([N+](=O)[O-])c1	26.8	-1.0	2.1%	6.0	/	-3.3	2.7	0.9
COc1ccc(Br)cc1-c1noc(-c2ccccc2F)n1	-12.9	-10.6	-3.3%	-2.1	/	-1.1	0.5	0.3

An excerpt from above in order of their number in LANA-H2B inh, lowest first.
| SMILES | Vif A3G | LANA-H2B inh | MLL AF4-AF9 inh | RanGTP-Impb inh | Bfl-1 A1 inh |
| --- | --- | --- | --- | --- | --- |
| Cc1cccc(NS(=O)(=O)c2ccc3c(c2)OCCO3)c1 | 19.6% | -5.5 | / | 0.7 | 0.2 |
| Cc1ccccc1-c1ccc(C(=O)NCc2ccccc2)o1 | 0.8% | -0.2 | -2.7 | 1.0 | 0.3 |
| O=C(O)c1cc(N=Cc2c(O)c3ccccc3oc2=O)ccc1O | -11.8% | 0.9 | 2.1 | -3.9 | -12.9 |
| Cc1ccc(C(=O)NNC(=O)c2ccccc2)cc1S(=O)(=O)N1CCCCC1 | -8.3% | 2.0 | 0.4 | / | -0.1 |
| CC(=O)c1cccc(NC(=O)CCS(=O)(=O)c2cccc3nonc23)c1 | 2.5% | 3.6 | / | / | -0.5 |
| O=C(NCc1ccco1)c1ccc(N2CCCCC2)c([N+](=O)[O-])c1 | 2.1% | 6.0 | / | -3.3 | 0.9 |

Continued:
SMILES	T cruzi inh	Beta apoptosis	Vif A3G	LANA-H2B inh	MLL AF4-AF9 inh	RanGTP-Impb inh	Calb FLC	Bfl-1 A1 inh
COc1ccc(-c2ccc3nnc(SCC(=O)NCC4CCCO4)n3n2)cc1 (stereo not given)	2.5	1.8	-8.6%	2.1	4.6	-1.0	-1.3	0.3
Cc1ccc(CNC(=O)c2cccnc2Cl)cc1	-12.7	-1.0	-6.6%	0.8	-2.1	?	9.1	-0.3
Cc1ccc(NS(=O)(=O)c2cccc([N+](=O)[O-])c2)nc1	-2.0	/	17.0%	4.8	0.0	2.5	1.6	-0.1
O=C(O)/C=C\C(=O)Nc1cccc(NC(=O)c2ccccc2)c1	-9.2	-0.3	3.3%	2.3	-6.8	-3.5	-5.5	0.0
CC(C)CC(=O)N1CCN(c2ccc([N+](=O)[O-])cc2Cl)CC1	-8.5	-2.6	2.5%	-1.4	0.4	?	-7.5	-0.5
CC(C)CC1=NN(C(=O)c2ccco2)C(O)(C(F)(F)F)C1 (stereo not given)	-1.2	-5.6	-2.5%	-1.8	-1.4	1.2	26.6	-0.4
COc1ccc(CN(CC(=O)NCC2CCCO2)C(=O)CCC(=O)Nc2cc(C)on2)cc1 (stereo not given)	-19.0	6.7	6.1%&-5.9%	2.4	/	-1.2	-2.9	0.2
CC(C)c1nc2sc3c(NCc4ccccc4)ncnc3c2c2c1COC(C)(C)C2	38.4	-4.6	-53.6%	1.3	/	1.8	-3.2	-1.5
CN(C)Cc1c(C(=O)N/N=C/c2ccco2)nnn1-c1nonc1N	5.0	-1.0	/	-3.8	-4.8	0.1	-4.7	0.4
N#Cc1ccsc1NC(=O)COC(=O)CCS(=O)(=O)c1ccccc1	/	-0.3	-1.6%	3.7	-0.9	/	/	-0.6
O=C1c2ccccc2S(=O)(=O)N1Cc1cc(=O)n2ccsc2n1	-8.3	-2.9	6.5%	-3.0	/	2.8	-0.9	-0.5
O=C1CC(/C=C/c2ccccc2)(C(=O)NC2CCCC2)N1c1ccc(S(=O)(=O)N2CCCC2)cc1 (stereo not given)	13.0	1.0	?	1.9	-0.2	-0.4	-11.1	-0.2
O=S(=O)(c1ccc(OC(F)(F)F)cc1)N1CCCC(c2ccccc2)C1 (stereo not given)	4.0	-0.9	1.4%	3.3	0.0	-0.6	-1.1	0.3
COC(=O)c1ccc(CNC(=O)COC(=O)c2cccs2)cc1	/	-0.8	-5.3%	1.0	-1.4	/	/	0.8
CCC(=O)N1CCN(c2ccc(NC(=O)COc3ccccc3[N+](=O)[O-])cc2)CC1	3.3	2.3	7.6%	-1.0	5.9	2.4	-3.3	-0.4
CCOc1ccc(N(CC(=O)Nc2ccc(C)c(C)c2)S(=O)(=O)c2c(C)[nH]c(=O)[nH]c2=O)cc1	4.6	-7.9	/	-2.6	-15.7	1.3	8.1	0.1
CCCC(=O)NCCc1nc2ccccc2n1CC(=O)c1ccccc1	-3.7	-6.0	-2.4%	-0.7	/	-1.2	0.9	0.6
Cc1ccc2n(n1)c(=O)c(Cc1ccccc1)c([O-])[n+]2-c1ccccc1	-21.9	-1.7	?	-2.7	/	-5.4	-9.2	-0.5
Cc1cccc(C)c1OCCN1CCCC1	3.5	-10.9	/	6.5	-12.2	0.1	-2.4	-0.4
OCC1(Cc2ccccc2)CCN(C2CCN(c3ccc(F)c(F)c3)CC2)CC1	43.7	-1.9	-8.9%	0.8	0.3	-1.4	-38.0	0.0
COc1ccc(/C=C/CN2CCC(CO)(Cc3ccccc3Cl)CC2)cc1	47.5	/	14.8%	-0.4	10.1	-4.4	-4.3	0.3

Structural class: the entries above with fluorine
SMILES	T cruzi inh	Beta apoptosis	Vif A3G	LANA-H2B inh	MLL AF4-AF9 inh	RanGTP-Impb inh	Calb FLC	Bfl-1 A1 inh
CCc1[nH]nc(C(=O)N2CCCC(CO)(Cc3ccc(F)cc3F)C2)c1C (stereo not given)	17.1	-1.8	-1.1%	-1.9	-0.5	0.8	3.5	-0.6
COc1ccc(Br)cc1-c1noc(-c2ccccc2F)n1	-12.9	-10.6	-3.3%	-2.1	/	-1.1	0.5	0.3
CC(C)CC1=NN(C(=O)c2ccco2)C(O)(C(F)(F)F)C1 (stereo not given)	-1.2	-5.6	-2.5%	-1.8	-1.4	1.2	26.6	-0.4
O=S(=O)(c1ccc(OC(F)(F)F)cc1)N1CCCC(c2ccccc2)C1 (stereo not given)	4.0	-0.9	1.4%	3.3	0.0	-0.6	-1.1	0.3
OCC1(Cc2ccccc2)CCN(C2CCN(c3ccc(F)c(F)c3)CC2)CC1	43.7	-1.9	-8.9%	0.8	0.3	-1.4	-38.0	0.0
